# From PubChem BioAssay
# Biofilm kill mix = mixture kills Candida albicans biofilm cells; 120,000 compounds, 0.02% hits; inhibition, % at 7.6 µM; C. albicans biofilm persisters + clotrimazole, fluorescence viability; primary screen in compound mixtures of four per well;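 active means inhibition above 30.3% in the primary screen of four-compound pools, then above 30% when the compound was retested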;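 further: compounds exposed to preformed 24 h biofilms for 48 h; the number belongs to the whole pool; some results filed as inactive read as strong as hits; inactives centre near 12; 0% = biofilm with clotrimazole alone and 100% = kill control; retested singly at about 60 µM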
#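 Incubation: 24 h biofilm formation, then 48 h compound exposure, 37 °C | Material: C. albicans biofilms | Buffer or medium: RPMI/MOPS medium, pH 7.0 | Measured by: 2-h Alamar Blue fluorescence, 535/590 nm excitation/emission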
# * = called active by the depositor. Some of the compounds tested. The share of hits here may be higher or lower than overall.
canonical_smiles | Biofilm kill mix
O=[N+]([O-])/C=C1/CCCCCN1 | -5.2
Cc1cc(C)c(NS(=O)(=O)c2ccc3c(c2)NC(=O)CC(=O)N3)c(C)c1 | 13.7
O=C(/C=C\c1ccco1)Nc1nc(-c2ccccc2)cs1 | -16.0
CCN(CC(=O)Nc1sc2c(c1C#N)CCCC2)CC(=O)NC1CCS(=O)(=O)C1 (configuration not stated) | -12.1
CC(C)CC1C(C#N)=C(N)OC2=C1C(=O)CC(c1ccccc1)C2 (configuration not stated) | -11.0
O=C(O)c1ccc(C2NCC(c3ccccc3Cl)c3c2[nH]c2ccccc32)cc1 (configuration not stated) | 17.4
CCOc1ccccc1NC(=O)N1CCN(S(C)(=O)=O)CC1 | -9.8
O=C(Nc1nc2ccccc2s1)c1ccccc1 | 4.3
Cc1ccc(N=CNc2ccc(C)cc2C)c(C)c1 | 18.0
Cc1cc(NC(=O)CCN2C(=O)/C(=C/c3ccccc3Cl)SC2=S)no1 | -4.2
COc1ccc(C(=O)/C=C/c2ccc(OC)cc2OC)c(O)c1 | 24.0
COc1ccc(C2CC(=O)N(CCCN(C)CCc3ccc(OC)c(OC)c3)C2)cc1 (configuration not stated) | 19.3
CC(C)c1ccccc1NC(=O)C1CN(S(=O)(=O)c2ccccc2)CCN1S(=O)(=O)c1ccccc1 (configuration not stated) | 6.5
Cc1ccc(N(C(=O)CS(=O)CC(=O)Nc2ccc(F)cc2)C(C(=O)NC2CCCCC2)c2ccco2)cc1 (configuration not stated) | 3.4
COc1ccc(OC)c(-n2nnnc2SCC(=O)Nc2cc(C)ccc2OC)c1 | 5.0
O=C(N/N=C/C=C/c1ccc2c(c1)OCO2)C(O)c1ccccc1 (configuration not stated) | 16.6
CC(C)C(NC(=O)c1ccc2c(c1)OCO2)C(=O)N/N=C/c1cccs1 (configuration not stated) | 11.7
CCOc1ccc2nc(SC3CC(=O)N(c4cccc(OC)c4)C3=O)sc2c1 (configuration not stated) | 16.6
COc1cc(/C(C#N)=C/c2ccccc2)c([N+](=O)[O-])cc1OC | 10.6
c1ccc2cc(CSCc3nc4ccccc4[nH]3)ccc2c1 | 19.2
O=c1cc(/N=C/c2coc3c(ccc4ccccc43)c2=O)[nH]c(=S)[nH]1 | 17.2
Cc1ccccc1NC(=S)N1CCC(NC(=O)c2ccco2)CC1 | 13.8
Cc1ccc(OCc2nnc(SCC(=O)NCc3ccco3)n2C)cc1 | 18.4
CC1(/[N+]([O-])=C\c2ccccc2F)CCCCC1=O (configuration not stated) | 22.1
O=C(NCc1nc2ccccc2[nH]1)C1=C[C@@H](c2ccc(Br)cc2)C[C@@H](OCCCCO)O1 | 17.3
CCc1nnc(NS(=O)(=O)c2ccc(NC(=O)c3cc(Cl)ccc3Cl)cc2)s1 | 9.1
O=C(c1ccccc1F)N1CCN(c2ccc([N+](=O)[O-])c3ncccc23)CC1 | 8.9
COc1ccc(C2SCCN2S(=O)(=O)c2ccccc2)cc1 (configuration not stated) | 8.2
CS(=O)(=O)c1ccc2nc(NC(=O)c3ccc(Cl)nc3)sc2c1 | 6.3
Cc1ccc(CNC(=O)CN(Cc2ccccc2)S(C)(=O)=O)cc1 | 18.0
CCCCCCC(=O)Oc1ccc(N2C(=O)CCC2=O)cc1 | 19.7
CC(C)CN(CC(C)C)C(=O)Nc1ccc(F)cc1F | 10.2
COc1ccc(/C=N/Nc2ccccn2)cc1O | 7.0
Cc1ccc(S(=O)(=O)c2cc3ccccc3oc2=O)cc1 | 9.2
CC(C)Sc1nc2ccsc2c(=O)[nH]1 | 17.6
Cc1ccc(S(=O)(=O)Nc2nc3ccccc3s2)cc1[N+](=O)[O-] | 36.2

# Compounds listed so far that have a nitro group on carbon (four):
canonical_smiles | Biofilm kill mix
O=[N+]([O-])/C=C1/CCCCCN1 | -5.2
COc1cc(/C(C#N)=C/c2ccccc2)c([N+](=O)[O-])cc1OC | 10.6
O=C(c1ccccc1F)N1CCN(c2ccc([N+](=O)[O-])c3ncccc23)CC1 | 8.9
Cc1ccc(S(=O)(=O)Nc2nc3ccccc3s2)cc1[N+](=O)[O-] | 36.2

# (continued)
canonical_smiles | Biofilm kill mix
COc1ccc(C2NC(c3ccc(OC)cc3OC)C(C)C(=O)C2C)c(OC)c1 (configuration not stated) | 20.6
COCCN(C(=S)Nc1ccccc1OC)C1CCN(C(C)=O)CC1 | 16.4
Cc1cc(-c2ccccc2)nc2cc(C(=O)NCc3ccco3)nn12 | 3.6
O=C(Nc1ncccn1)c1ccc(C(F)(F)F)cc1 | 13.0
CCN(CC)CCSc1nnc(Nc2ccccc2)n1-c1ccccc1 | 5.5
COc1ccc(CCNC(=O)Cn2nc([N+](=O)[O-])c(Br)c2C)cc1OC | 16.2
O=C(O)c1cc2nc(-c3ccccc3)cc(-c3ccccc3)n2n1 | 12.9
Cc1ccc2c(c1)NC(=O)c1cc([N+](=O)[O-])ccc1O2 | 19.6
CC(c1ccco1)N(C(=O)c1ccc(C(F)(F)F)cc1)c1ccccn1 (configuration not stated) | 12.4
O=C(Nc1sc2c(c1C(=O)O)CCCCC2)c1ccccc1 | 17.8
O=C(Nc1ccc2c(c1)S(=O)(=O)N=C1CCCCCN12)c1ccccc1Cl | 15.6
O=C(Cn1cc(C(F)(F)F)cc(Cl)c1=O)Nc1cc(S(=O)(=O)N2CCOCC2)ccc1Cl | 19.2
CC(O)CNc1ccc(-c2nn(C)c(=O)c3ccccc23)cc1[N+](=O)[O-] (configuration not stated) | 15.3
CN(C)C1N(C(=O)c2ccccc2)N=C2c3ccccc3S(=O)(=O)N21 (configuration not stated) | 19.0
Cc1ccc(S(=O)(=O)Oc2ccccc2/C=C2\SC(=O)NC2=O)cc1 | 16.6
COc1ccc(N2C(=O)c3ccccc3NC2c2ccc(OC)c(COc3ccccn3)c2)cc1 (configuration not stated) | 7.3
CCOC(=O)c1[nH]c(C)c(C(=O)NCc2ccco2)c1C | 12.3
Cc1ccc(NS(=O)(=O)c2ccc(OCC(N)=O)cc2)cc1 | 8.0
CCCC(=O)Nc1ccc2c(c1)c1ccccc1n2CC | 9.5
CCOC(=O)C1=C(C)N(CCCCCC(=O)O)C(=O)NC1c1ccccc1OC(=O)c1cccs1 (configuration not stated) | 8.4
O=C(Nc1ccccc1F)Nc1ccccc1N1CCCCC1 | 5.5
Cc1cc(C)cc(N(C(=O)c2sc(C)nc2C)C(C(=O)NC(C)(C)C)c2ccncc2)c1 (configuration not stated) | 14.7
O=C(Nc1ccc2nn(-c3ccc(F)cc3)nc2c1)c1cccnc1 | 29.4
CCOc1ccc(N(CC(=O)NCC2CCCO2)C(=O)CCC(=O)Nc2nccs2)cc1 (configuration not stated) | -4.2
COC(=O)c1ccc(OCC(=O)Nc2ccsc2C(=O)OC)cc1 | 16.0
COc1cccc(N=C2C(=O)N3CCCc4cccc2c43)c1 | 10.7
FC(F)(F)c1ccncc1-c1nnc(C2CCCCC2)o1 | 13.9
C=CCc1c(C)nc(-c2ccccc2)nc1N/N=C(\C)c1ccccc1 | 16.9
O=C(CN1CCN(c2ccccc2O)CC1)Nc1cccnc1Cl | 7.2
CCNC(=O)c1cccc(S(=O)(=O)N2CCCCCC2)c1 | -9.7
C=CCNC(=S)N/N=C/c1cn(-c2ccccc2)nc1-c1ccc(OC)cc1 | 8.2
O=C(C[n+]1cccc2ccccc21)c1ccccc1 | -2.2
CCN(CC)CCNC(C(=O)Nc1cc(C(F)(F)F)ccc1Cl)c1ccccc1 (configuration not stated) | 5.2
Cc1ccc(S(=O)(=O)N2CCOCC2)cc1C(=O)Nc1nc2ccccc2[nH]1 | 16.1
CCN(CC)c1ccc(/C=N/NC(=S)NCc2ccc(OC)cc2)cc1 | -7.2
CC1(C)Cc2cccc(OCC(=O)OCC(=O)Nc3cccc(S(N)(=O)=O)c3)c2O1 | 8.9
O=C(NCCCN1CCCC1)[C@H](CSCc1ccccc1)N1Cc2ccccc2C1=O | 30.5
COc1ccc(NC(=O)c2cc([N+](=O)[O-])ccc2O)cc1 | 23.8
CC(C)N(Cc1nccn1C)C(=O)CC1C(=O)NCCN1Cc1ccccc1C(F)(F)F (configuration not stated) | 7.5
CCc1ccc(N2CN(CCc3ccccc3)CNC2=S)cc1 | 17.8
COc1cc(-c2n[nH]c(=S)n2/N=C/c2cccn2C)cc(OC)c1OC | 10.4
O=C(c1ccc(Cl)cc1)[C@@H]1[C@@H]2C(=O)N(c3ccccc3)C(=O)[C@@H]2C2c3ccccc3C=NN21 (some centres not stated) | 9.5
Cc1cccc(NS(=O)(=O)c2ccc3[nH]c(=O)cc(C(=O)O)c3c2)c1 | 3.4
Cc1cc(C)nc(SC2CCCCC2NS(=O)(=O)c2ccccc2)n1 (configuration not stated) | 10.1
CCC(=O)Nc1nnc(SCc2cccc(F)c2)s1 | 9.8
Cc1[nH]n(-c2ccccc2)c(=O)c1C=NC1CCCCC1 | 5.7
Cc1ccc(C)c(S(=O)(=O)N2CCN(C(C)C(=O)Nc3ccccc3-c3ccccc3)CC2)c1 (configuration not stated) | 13.1
CCOc1cccc(C(=O)Nc2cccc(C(C)=O)c2)c1 | 21.5
Cc1nc(-c2cc(-c3nc(-c4ccc(C(C)(C)C)cc4)no3)no2)cs1 | 17.8
COc1cc(OC)c(/C=N/NC(=O)c2ccc(Cn3nc([N+](=O)[O-])cc3C)cc2)c(OC)c1 | 25.4
Cc1cccc(C)c1NC(=O)CSc1nnc(C)c(=O)[nH]1 | 23.3
COc1ccc(C(=O)NCCN2CCOCC2)c(OC)c1 | 13.2
Cc1cccn2c(=O)c3cc(C(N)=S)c(=N)n(CCCN4CCOCC4)c3nc12 | 11.7
NC(=O)NC(Cc1ccccc1)C(=O)O (configuration not stated) | 9.1
O=C(CSc1ccc(C(F)(F)F)cc1[N+](=O)[O-])NCCOc1ccccc1 | 18.9
CCOc1cc(CNc2ccc(CNc3ncn[nH]3)cc2)ccc1OCc1ccccc1 | 16.2
COc1ccc2c(c1OC)C(=O)OC2C/C(=N\NC(N)=O)c1ccccc1 (configuration not stated) | 15.0
Cn1c(-c2cccs2)nc2ccccc21 | -8.1
Cc1cc(=O)[nH]c(N/N=C/c2c(C)nn(-c3ccccc3Cl)c2Cl)n1 | -0.2
CCOc1cc(/C=N/NC(=O)CN2CCCCC2)ccc1OCc1ccc(Cl)cc1 | 17.1

# (listing goes on)
canonical_smiles | Biofilm kill mix
Cc1ccccc1Cn1nnc(-c2ccc(C(=O)O)cc2)n1 | 5.3
Cc1ccc(-c2nsc(SCC(=O)NCc3ccc4c(c3)OCO4)n2)cc1 | -10.1
CC(/C=C/c1ccccc1F)=N\NC(=O)C(C)C | 5.4
CSC1=NC(C(Cl)(Cl)Cl)N=C(c2ccccc2)N1 (configuration not stated) | 22.8
NS(=O)(=O)c1ccc(CCNC(=O)COC(=O)CCc2ccccc2)cc1 | 8.1
COC(=O)C1C(c2ccc(OC)c(OC)c2)NC(c2ccc(OC)c(OC)c2)C(C(=O)OC)S1(=O)=O (configuration not stated) | -1.1
Cn1cc(CCC(=O)N2CCCC(CCC(=O)NCc3ccccc3F)C2)cn1 (configuration not stated) | 22.4
COc1ccc(OCCSc2nc(-c3ccccc3)cc(=O)[nH]2)cc1 | 27.4
COc1cccc(-n2c(C)cc(/C=C3/C(=N)N4C(=NC3=O)SN=C4S(C)(=O)=O)c2C)c1 | 3.4
COc1ccccc1NC(=O)CSc1nnc2ccc(-c3cccnc3)nn12 | 0.9
Cc1cc(C)cc(OCC(=O)N2Cc3ccccc3CC2C(=O)O)c1 (configuration not stated) | 5.0
O=c1c(Cl)c(NCc2ccccc2)cnn1C12CC3CC(CC(C3)C1)C2 | 10.0
N#Cc1nnn(Cc2ccccc2)c1N | 8.0
Fc1ccccc1C1CC(c2ccco2)=Nc2ccccc2S1 (configuration not stated) | 19.7
CN(C(=O)CSc1nc2c(cnn2-c2ccccc2)c(=O)[nH]1)C1CCS(=O)(=O)C1 (configuration not stated) | 8.3
Nc1nc(Sc2ccc([N+](=O)[O-])cc2[N+](=O)[O-])n[nH]1 | 10.5
O=C(N/N=C/c1c[nH]c2ccccc12)c1ccncc1 | 9.6
COc1ccc(NC(=O)CSc2nc3[nH]ncc3c(=O)n2-c2ccccc2C)cc1OC | 19.2
CCOC(=O)c1[nH]ncc1CN1CCCC(C(=O)c2cccc(OC(C)C)c2)C1 (configuration not stated) | 15.6
COc1cc(OC)cc(C(=O)N[C@@H](CCSC)c2nc3ccccc3[nH]2)c1 | 7.6
CC(=O)c1ccc(OC2OCCOC2Oc2ccc(C(C)=O)cc2)cc1 (configuration not stated) | 17.0
NNC(=O)c1cc2sccc2s1 | 22.4
CCOc1ccc(S(=O)(=O)N(C(=O)c2ccco2)c2cc3sc(=O)oc3c3ccccc23)cc1 | 12.5
CC1(C)CC(=O)C(C=NCC2CCN(C(=S)Nc3ccccc3)CC2)=C(O)C1 | 20.7
O=C(c1ccc(C(F)(F)F)cc1)C1CCCN(C(=O)c2cnccn2)C1 (configuration not stated) | 5.2
O=C(Cc1ccccc1)NCc1ccc(F)cc1 | 11.3
CC(C)N1CCNCC1 | 24.7
COC(=O)c1nnn(-c2nc(N(C)C)nc(N(C)C)n2)c1C | -4.1
COc1ccc2c(-c3cc4ccc(OCc5ccc(F)cc5)cc4oc3=O)cc(=O)oc2c1 | 22.9
COCCNc1nc(C)cc(-c2cc(-c3ccc(Cl)cc3)on2)n1 | 23.6
COCCNC(=S)Nc1cc(OC)c(NC(=O)c2ccco2)cc1OC | 6.9
Oc1c(C=Nc2ccccc2)sc(=S)n1Cc1ccccc1 | 12.5
Cc1ccc(-n2cc(-c3ccccc3)c3c(=O)[nH]cnc32)cc1 | 13.4
CN(Cc1ccccc1)S(=O)(=O)c1ccc(NC(=S)NC(=O)C(C)(C)C)cc1 | 17.8
